CtBP-E1A blk: CtBP/E1A binding inhibition; AlphaScreen GST-E1A/His-CtBP binding, 1536-well; stronger effect = lower value; control for the full effect not named in the record; activity change, % (concentration not given with the values); 340,000 tested, 0.49% active; in the data active means activity change below about -65%; inconclusive means about -30% to -65%; inactive means above about -30%; note: % is set by controls: 0 for no effect and ±100 for the full control effect
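In 5 uL wells, 23 nL compound meets equimolar GST-E1A and His-CtBP (5X stock 125 nM each) for 2 h, 37 °C. Beads (5X, 50 ug/mL) then 1 h, 37 °C, dark.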
Menin MLL FP FL: menin-MLL binding inhibition, fluorescein peptide; FP activity change, % at 61.4 µM; Fluorescence polarization, fluorescein-MLL peptide displacement from menin; 290,000 tested, under 10 active; AID 1766; inconclusive = falling polarisation curve, or a change in total fluorescence; inactive = total fluorescence flat and polarisation flat or rising; no compound was filed as active; the % refers to the polarisation; negative = inhibition;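 note: % of control where 0% means no effect; inhibitors lower the polarisation; unlabelled MLL peptide was the positive control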
gsp ag: activates gsp, the McCune-Albright syndrome mutation | gsp mutant cells, cAMP HTRF, 30 min; control for the full effect not named in the record | Potency, µM (titrated, usually from 76.9 µM), inactives show top-dose activation (cAMP increase), most hits filed as activators | 340,000 tested, 0.13% active; active = well fitted activation curve with a large enough effect; inconclusive = small, poorly fitted or top-dose-only effect, or another doubt; inactive = no such curve, though single readings can be large or run the other way; cell line not stated here;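 note: phosphodiesterase inhibitor Ro 20-1724 added with compounds to block cAMP breakdown; potency is the fitted concentration of half-maximal effect; nearly all actives have a fitted effect of over 60% in size; about a fifth of the inactives were tested at one dose only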
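Cells stably selected in G418 were plated at 2000/well, grown 16-24 hr, then given compounds in DMSO with the PDE inhibitor […] (300 uM solution added) for 30 min at 37C; cAMP was read by HTRF.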
gsp antag: antagonists of gsp mutant (McCune-Albright syndrome); gsp-mutant cells, cAMP HTRF, 30 min; control for the full effect not named in the record; Potency, µM (top dose mostly 76.9 µM), without a hit: at the highest dose activity change, negative = inhibition, usual class: inhibitors; 340,000 tested, 0.4% active; AID 624288; active = falling curve of any shape with a large fitted effect; inconclusive = falling curve, mostly with a smaller effect; inactive = flat or rising curve; cell line not stated here;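 note: intracellular cAMP measured with PDE inhibitor Ro 20-1724 present during compound exposure; potency is the fitted concentration of half-maximal effect; % is set by controls: 0 for no effect and ±100 for the full control effect; nearly all actives have a fitted effect of over 65% in size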
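Measurement of cellular cAMP by homogeneous time-resolved fluorescence following a 30 min compound exposure at 37C. The PDE inhibitor […] was present throughout; the assay buffer was DPBS with 0.05% BSA and 0.005% Tween 20.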
Sfp PPTase inh: inhibitors of Bacillus subtilis Sfp phosphopantetheinyl transferase; Q9F4F7; Biochemical Sfp PPTase activity, qHTS; Potency, µM, for inactives: max response, negative = inhibition, usual class: inhibitors; 310,000 tested, 3.5% active; AID 1490; active = well fitted inhibition curve with a large enough effect; inconclusive = small, poorly fitted or top-dose-only effect, or another doubt; inactive = no such curve, though single readings can be large or run the other way;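 note: the enzyme is Sfp with the accession as filed and its product quenches rhodamine fluorescence; potency is the fitted concentration of half-maximal effect; 0% = enzyme reaction without inhibitor and -100% = no enzyme wells; top concentration of the series not given in the record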
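With Hepes-Na pH 7.6 buffer containing 10 mM MgCl2, Sfp (15 nM) modified BHQ-2-YbbR (12.5 uM) using rhodamine-CoA (5 uM). Two reads 30 minutes apart at 525/598 nm yielded each well's rate.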
ClpP mod: qHTS Assay for Activators of ClpP | purified B. subtilis ClpP, FRET peptide cleavage, 20 min | ATP-dependent Clp protease proteolytic subunit (Bacillus subtilis (strain 168)), P80244 | Potency, µM (highest dose often 57.5 µM), without a hit: at the highest dose activity change, negative = active | 340,000 tested, 1.9% active; active = well fitted falling curve with a large enough effect; inconclusive = small, poorly fitted or top-dose-only effect; inactive = no such curve, though single readings can be large or run the other way; note: potency is the fitted concentration of half-maximal effect; the source files actives as falling curves though it sought activators and does not explain the sign; nearly all actives have a fitted effect of over 65% in size; many hits overshoot -100%
Target sequence (P80244 whole entry, looked up): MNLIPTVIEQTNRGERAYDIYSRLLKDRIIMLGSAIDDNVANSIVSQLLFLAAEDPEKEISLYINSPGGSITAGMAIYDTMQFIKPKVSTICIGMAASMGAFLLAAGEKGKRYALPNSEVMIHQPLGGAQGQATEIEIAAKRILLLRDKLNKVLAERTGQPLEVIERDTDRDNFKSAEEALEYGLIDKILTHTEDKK
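FRET quenching reversal measured ClpP activation: 10 microg/mL B. subtilis ClpP at pH 8 with the FRET-FV decapeptide, read at 430 nm after 320 nm excitation. The 20-min minus 0-min signal was scaled between DMSO/no-enzyme wells and ADEP (5.8 microM final).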
TRPV1 potentiator: enhances activation of the human vanilloid receptor TRPV1; potentiation, % at 8.33 µM; TRPV1-expressing cells, Fluo-8 calcium influx, capsaicin EC20 potentiation; host cell line not named in the record; control for the full effect not named in the record; 320,000 tested, 0.02% active; active means potentiation above 80%; inconclusive means 30% to 80%; inactive means below 30%; note: 0% is about no effect
Target sequence (Q8NER1 whole entry, looked up): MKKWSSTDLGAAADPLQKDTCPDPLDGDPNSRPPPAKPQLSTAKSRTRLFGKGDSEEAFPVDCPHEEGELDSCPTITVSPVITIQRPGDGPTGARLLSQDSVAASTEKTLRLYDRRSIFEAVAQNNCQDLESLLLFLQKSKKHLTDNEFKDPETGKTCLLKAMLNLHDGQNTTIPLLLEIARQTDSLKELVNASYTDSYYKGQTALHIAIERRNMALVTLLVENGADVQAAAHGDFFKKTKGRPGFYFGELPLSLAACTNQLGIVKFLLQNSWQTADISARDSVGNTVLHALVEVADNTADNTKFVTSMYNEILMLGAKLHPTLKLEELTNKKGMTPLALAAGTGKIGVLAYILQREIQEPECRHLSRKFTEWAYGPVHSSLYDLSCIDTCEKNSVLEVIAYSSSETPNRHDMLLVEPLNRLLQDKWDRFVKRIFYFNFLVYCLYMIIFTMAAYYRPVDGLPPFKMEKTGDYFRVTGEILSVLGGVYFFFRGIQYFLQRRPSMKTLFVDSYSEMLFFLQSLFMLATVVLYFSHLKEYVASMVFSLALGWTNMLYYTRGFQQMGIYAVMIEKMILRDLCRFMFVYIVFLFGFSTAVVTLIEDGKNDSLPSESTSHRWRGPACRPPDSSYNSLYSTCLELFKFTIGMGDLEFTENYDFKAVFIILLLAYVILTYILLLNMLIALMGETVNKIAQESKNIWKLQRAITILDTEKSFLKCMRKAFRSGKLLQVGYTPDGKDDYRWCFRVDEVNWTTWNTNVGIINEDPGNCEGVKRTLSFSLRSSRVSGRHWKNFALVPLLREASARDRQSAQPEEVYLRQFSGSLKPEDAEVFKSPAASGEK
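TRPV1-expressing cells were cultured overnight at 35.5C and loaded with Fluo-8 calcium dye for 40 to 90 min at room temperature. After a 10 s baseline, compound was added and calcium influx was read kinetically for 3 min (ex 480/em 520 nm).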
* = called active by the depositor; ? = inconclusive; · = not tested or not shown; & = joins results of further samples; [ ] = dose if it differs, or a comment.

SMILES | CtBP-E1A blk | Menin MLL FP FL | gsp ag | gsp antag | Sfp PPTase inh | ClpP mod | TRPV1 potentiator
Cc1ccc(-c2nc3ccccc3c(=O)n2-c2ccc(O)cc2)cc1 | 8 | -3.3 | -122%[inhibitor] | -14% | 12% | · | 4
COP(=O)(OC)C(Nc1ccccc1)c1ccccc1 (stereo unspecified) | 6 | -1.8 | -3% | 8% | -2% | 0.0% | 13
COc1cccc(NP(=O)(Oc2ccccc2Cl)Oc2ccccc2Cl)c1 | -3 | 1.3 | 7%[15.4 µM] | -9% | 18% | -1.5% | 2
COc1cc2nc(CN3CC=C(c4ccccc4)CC3)[nH]c(=O)c2cc1OC | -1 | · | -5%[15.4 µM] | -10% | · | · | ·
COc1cccc(C2CCN(CC(=O)Nc3cc(Cl)ccc3OC)CC2O)c1 (stereo unspecified) | -3 | 2.7 | 17%[15.4 µM] | ? | -4% | -2.8% | 12
CC1(C)CN2C(c3ccc(Cl)cc3)N2C1 (stereo unspecified) | 7 | 1.2 | 12% | 9% | 0% | 2.5% | -7
O=C(c1ccc2nc(-c3ccco3)c(-c3ccco3)nc2c1)N1CCC2(CC1)OCCO2 | 0 | 2.5 | -1% | -19% | 8.9µM* | -5.5% | 2
COc1ccc(C(=O)OC2C[C@H]3CC[C@@H](C2)N3O)cc1OC (stereo partly specified) | 2 | 1.4 | -1% | 7% | 11% | · | 17
CCCNc1nc2c(c(=O)[nH]c(=O)n2C)n1Cc1ccc(F)cc1 | -1 | 5.9 | ? | 10% | 19% | 1.6% | 12
c1ccc2c(c1)CSc1ccccc1C2C1=NCCN1 (stereo unspecified) | 3 | -7.3 | -23% | 13% | -1% | 1.4% | 8
O=C(O)CSC(=S)N1CC2CC(C1)c1cccc(=O)n1C2 (stereo unspecified) | · | -0.9 | -2% | 3% | 5% | -2.7% | 4
COc1cc2occc2c2oc(=O)ccc12 | 0 | -5.1&-6.6&1.5 | · | 1% | -13%&-3%&-8% | -0.9% | -5
O=C(c1cc(-c2ccc(Cl)cc2)n(-c2ccc(Cl)cc2Cl)n1)N1CCOCC1 | -1 | 3.9 | -10% | 4% | -2% | -0.7% | -9
N[C@@H](Cc1ccc(N(CCCl)CCCl)cc1)C(=O)O | -2 | 8.0 | · | -6% | ? | -7.9% | 0
CN(C)CCCN=Cc1c(O)n(CCc2ccccc2)c(=O)[nH]c1=O | -1 | ? | -21% | 3% | 8% | 1.0% | 3
C[C@]12CCC3C(CC[C@H]4C[C@@H](O)[C@H](O)C[C@]34C)C1CC[C@@H]2O (stereo partly specified) | 4 | · | 18% | 3% | · | · | ·
COC1C(O)C(C)OC(OC2CCC3(C=O)C(CCC4C3CCC3(C)C(C5=CC(=O)OC5)CCC43O)C2)C1O (stereo unspecified) | 4 | · | · | 1% | · | 0.5% | ·
COC(=O)C(O)(c1c(C)[nH]n(-c2ccccc2)c1=O)C(F)(F)F (stereo unspecified) | -6 | -1.4 | -14% | -12% | 21% | 0.5% | 12
CCCCn1c(O)c(C(CC)=Nc2ccc(OC)cc2OC)c(=O)[nH]c1=O | -1 | 0.7 | -20% | -20% | 2% | -2.1% | 2
CCCCn1c(=O)c(C(=O)Nc2ccccc2)c(O)c2ccccc21 | 2 | -2.8 | -6%[15.4 µM] | 15% | 14% | · | 0

Entries of single compounds from above:
Entry for COC(=O)C(O)(c1c(C)[nH]n(-c2ccccc2)c1=O)C(F)(F)F (stereo unspecified) : CtBP-E1A blk: -6; Menin MLL FP FL: -1.4; gsp ag: -14%; gsp antag: -12%; Sfp PPTase inh: 21%; ClpP mod: 0.5%; TRPV1 potentiator: 12
Entry for CCCNc1nc2c(c(=O)[nH]c(=O)n2C)n1Cc1ccc(F)cc1 : CtBP-E1A blk: -1; Menin MLL FP FL: 5.9; gsp ag: ?; gsp antag: 10%; Sfp PPTase inh: 19%; ClpP mod: 1.6%; TRPV1 potentiator: 12

Further entries follow:
SMILES | CtBP-E1A blk | Menin MLL FP FL | gsp ag | gsp antag | Sfp PPTase inh | ClpP mod | TRPV1 potentiator
O=C1NC(=O)C(CCc2ccncc2)(CCc2ccncc2)C(=O)N1Cc1ccc(F)cc1 | -11 | -2.6 | 9%[15.4 µM] | -7% | 2% | · | 9
Nn1c(Cc2cccc3ccccc23)n[nH]c1=S | · | -2.3 | 4% | -3% | 7.1µM* | -2.8% | -23
CC=C(C)C(=O)OC1CCN2CC=C(COC(=O)C(O)(C(C)OC)C(C)(C)O)C12 (stereo unspecified) | 3 | · | 20% | 8% | · | · | ·
CC(C)c1ccc(NC(=O)CCNC(=O)N2C[C@H]3C[C@@H](C2)c2cccc(=O)n2C3)cc1 | 6 | 0.7 | · | 2% | 11% | -5.5% | 0
Cc1cc(Cl)ccc1OCC(=O)N1CCN(C)CC1 | 12 | 0.6 | -43% | -4% | 4% | 0.2% | -6
O=C(CNC(=O)c1cccc(Cl)c1)Nc1ccc(Br)cc1C(=O)c1ccccc1 | 1 | 3.6 | 10% | 40µM* | 12% | 0.9% | ?
COc1ccccc1OCC#CCN1CCCC1 | · | 7.3 | 4% | 7% | ? | 0.1% | 2
CCOC(=O)c1c(NS(=O)(=O)c2ccccc2)n(CCCOC)c2nc3ccccc3nc12 | -25 | -5.3 | ? | 4% | 11% | 28µM* | 9
COC(=O)C1=C(c2ccc(F)cc2OCc2ccccc2)C[C@@H]2CC[C@H]1N2C(=O)NCc1ccccc1C(F)(F)F | 2 | · | 0% | -4% | · | -3.9% | 5
O=C1NC(=S)N(c2ccccc2F)C(=O)/C1=C\c1cccs1 | -1 | ? | -23% | ? | 11µM* | 1.8% | 10
O=C(NC1(C(F)(F)F)Oc2ccccc2O1)N1CCC2(CC1)OCCO2 | -1 | 2.0 | 0% | -6% | -1% | -1.1% | ?
COc1ccc(NC(=O)C(=O)NNC(=O)C(C)Oc2ccc(Cl)cc2Cl)cc1 (stereo unspecified) | -5 | 0.8 | 9% | -19% | 36%[activator] | · | -1
C[C@@H]([C@@H](O)c1ccccc1)N(C)C(=O)Cc1ccccc1 | 3 | · | -1% | -4% | · | 1.6% | ·
COC(=O)c1cc(C(O)(C(=O)OC)C(F)(F)F)c(/N=C/N(C)C)s1 (stereo unspecified) | -3 | 0.2 | -42%[inhibitor] | -6% | 4% | -4.6% | -1
O=C(O)CC1OCC=C2CN3CCC45C6=CC(=O)C(=O)C([N+](=O)[O-])=C6NC4C1C2CC35 (stereo unspecified) | ? | 1.7 | 18% | 3% | 14µM* | 0.2% | 20
Cc1ccc(CN2CCCC(C(=O)c3ccc4c(c3)OCO4)C2)cc1C (stereo unspecified) | -17 | 3.0 | -8% | 9% | -5% | -10% | -5
Fc1ccc(Cn2nnnc2C(c2ccc(Cl)cc2)N2CC=C(c3ccc(F)cc3)CC2)cc1 (stereo unspecified) | · | 6.2 | 9% | ? | 3% | -11% | -5
COc1ccc(OC)c(N2C(=O)NC(=O)/C(=C\c3ccc([N+](=O)[O-])s3)C2=O)c1 | ? | 25 | 1%[15.4 µM] | -1% | 22µM* | · | 8
COC(=O)C1=C(c2ccc(OC(F)(F)F)cc2)C[C@@H]2CC[C@H]1N2C(=O)NC1Cc2ccccc2C1 | 11 | · | -33%[inhibitor] | -7% | · | 1.9% | -8
CCCC[N+]12CCC(CC1)C(Cc1ccccc1)C2 (stereo unspecified) | 7 | 2.8 | -2%[15.4 µM] | 7% | 11% | · | -9
CC(C)(Oc1ccc(Cl)cc1)C(=O)OCC(=O)N1CCN(c2ccccc2)CC1 | 7 | · | -2% | 13% | · | -3.1% | -2
N#CC1C(C#N)C2CCC1C1C2N1c1ccccc1 (stereo unspecified) | -11 | · | 16% | 10% | · | · | ·
CC(C)(C#CCCCCC#CC(C)(C)[N+](C)(C)C)[N+](C)(C)C | · | 4.3 | · | · | -10% | · | -5
O=C1NC(=O)C(=C/C=C/c2coc3ccc(Br)cc3c2=O)C(=O)N1 | · | ? | · | · | -14% | · | 3
O=C(Cn1ccc2ccccc2c1=O)NCC(=O)N1CCC2(CC1)OCCO2 | 13 | 0.5 | -9% | 7% | 13% | · | -1
Cn1c(O)c(/C=C2\C=Nc3ccccc32)c(=O)n(C)c1=O | · | -11 | 41% | -8% | 22% | 0.8% | 10
CN1C(CC(O)c2ccccc2)CCCC1CC(O)c1ccccc1 (stereo unspecified) | 2 | · | · | -4% | · | 0.6% | 4
CCc1nc(CNC(=O)c2cc(OC)c(OC)c(OC)c2)no1 | -1 | -4.5 | ? | 2% | 12% | -3.0% | 7
O=[N+]([O-])c1cccc(NP(=O)(N2CC2)N2CC2)c1 | 0 | · | 10% | 14% | · | · | ·
CCCCNC(C)Cc1ccccc1 (stereo unspecified) | 3 | · | · | 3% | · | 1.8% | ·
CC[C@H](C)/C=C(C)/C=C/C1=CC2=C(Cl)C(=O)[C@@](C)(OC(C)=O)C(=O)C2=CO1 | 3 | · | 5% | -1% | · | 1.1% | ·
Cc1ccc(N2C(=O)NC(=O)C(CCc3ccccn3)(Cc3cccc(Cl)c3Cl)C2=O)cc1 (stereo unspecified) | -7 | 4.9 | -3% | 8% | 8% | -2.8% | 14

Entries listed so far with sulfur (seven):
SMILES | CtBP-E1A blk | Menin MLL FP FL | gsp ag | gsp antag | Sfp PPTase inh | ClpP mod | TRPV1 potentiator
c1ccc2c(c1)CSc1ccccc1C2C1=NCCN1 (stereo unspecified) | 3 | -7.3 | -23% | 13% | -1% | 1.4% | 8
O=C(O)CSC(=S)N1CC2CC(C1)c1cccc(=O)n1C2 (stereo unspecified) | · | -0.9 | -2% | 3% | 5% | -2.7% | 4
Nn1c(Cc2cccc3ccccc23)n[nH]c1=S | · | -2.3 | 4% | -3% | 7.1µM* | -2.8% | -23
CCOC(=O)c1c(NS(=O)(=O)c2ccccc2)n(CCCOC)c2nc3ccccc3nc12 | -25 | -5.3 | ? | 4% | 11% | 28µM* | 9
O=C1NC(=S)N(c2ccccc2F)C(=O)/C1=C\c1cccs1 | -1 | ? | -23% | ? | 11µM* | 1.8% | 10
COC(=O)c1cc(C(O)(C(=O)OC)C(F)(F)F)c(/N=C/N(C)C)s1 (stereo unspecified) | -3 | 0.2 | -42%[inhibitor] | -6% | 4% | -4.6% | -1
COc1ccc(OC)c(N2C(=O)NC(=O)/C(=C\c3ccc([N+](=O)[O-])s3)C2=O)c1 | ? | 25 | 1%[15.4 µM] | -1% | 22µM* | · | 8

Some of the compounds tested; rates above refer to the full screens.
